# Screening results (PubChem BioAssay)
# NOMO-1 viab: STK33 inhibitor candidate reducing NOMO-1 cell viability. NOMO-1 AML viability, CellTiter-Glo luminescence, 72 h. inhibition, % (no concentration beside the values). 37,000 compounds, 7.5% hits. AID 2330;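 active = most replicates above 80%; inconclusive = exactly half above 80%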;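 note: wells of about 30 µL received 25 nL stock; 0% = median of vehicle wells and 100% = reference inhibitor level; the first replicate is given; inactives centre near 10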
# * hit, by the source's call; ? = inconclusive.
SMILES,NOMO-1 viab
CNC[C@@H]1Oc2ccc(NC(=O)Cc3ccccc3)cc2CC(=O)N([C@H](C)CO)C[C@@H]1C,-17
COc1ccccc1-c1c(C(F)(F)F)oc2cc(OCC(=O)Nc3cc(C)ccc3C)ccc2c1=O,34
Cc1ccc(S(=O)(=O)N(C)C[C@@H]2Oc3ccc(NS(=O)(=O)c4cccs4)cc3C(=O)N([C@@H](C)CO)C[C@H]2C)cc1,18
CC(C)(C#N)NC(=O)C1Cc2ccccc2CN1S(=O)(=O)c1ccc(F)cc1 (stereo unspecified),5
CC(C)NC(=O)N(C)C[C@@H]1Oc2ccc(NC(=O)Nc3ccc4c(c3)OCO4)cc2CC(=O)N([C@H](C)CO)C[C@@H]1C,1
CCOC(=O)c1c(NC(=O)C(C)Oc2ccccc2C)sc2c1CCCC2 (stereo unspecified),7
C[C@@H]1CN([C@@H](C)CO)C(=O)c2cccc(NC(=O)Nc3ccccc3)c2O[C@H]1CN(C)C(=O)NC1CCCCC1,10
Cc1noc(C)c1NC(=O)N(C)C[C@H]1Oc2ccc(NS(=O)(=O)c3ccc(F)cc3)cc2C(=O)N([C@@H](C)CO)C[C@H]1C,8
Cc1ccc(S(=O)(=O)N(C)C[C@@H]2OCCCC[C@@H](C)Oc3ccc(NS(=O)(=O)c4ccc(F)cc4)cc3C(=O)N([C@H](C)CO)C[C@@H]2C)cc1,11
COc1ccccc1C(=O)CSc1nnc(-c2ccccc2Cl)n1-c1ccccc1,50
O=S(=O)(NCC1CCCO1)c1ccc(Br)cc1 (stereo unspecified),13
C=C[C@H]1[C@H](O[C@@H]2O[C@H](CO)[C@@H](O)[C@H](O)[C@H]2O)OC=C2C(=O)N3Cc4c([nH]c5ccccc5c4=O)[C@@H]3C[C@H]21,20
C[C@@H]1CN([C@H](C)CO)C(=O)Cc2cc(NC(=O)Nc3ccc(C(F)(F)F)cc3)ccc2O[C@H]1CN(C)S(=O)(=O)c1ccc(F)cc1,6
C=C(C)C(=O)O[C@H]1[C@H]2C(=C)C(=O)O[C@@H]2C[C@@H](C)/C=C/C(=O)[C@](C)(O)[C@@H]1OC(=O)C(=C)C,107*
C=C1C(=O)O[C@@H]2/C=C(/CO)CC/C=C(/C=O)C[C@@H](O)[C@@H]12,109*
COc1ccc(NC(=O)Nc2ccc3c(c2)CC(=O)N([C@@H](C)CO)C[C@H](C)[C@H](CN(C)S(=O)(=O)c2ccc(Cl)cc2)O3)cc1,112*
COc1cc(O)c(CC=C(C)C)c(O)c1C(=O)CCc1ccc(O)cc1,?
COc1ccc(CN(C)C[C@@H]2Oc3c(NS(=O)(=O)c4ccccc4)cccc3C(=O)N([C@@H](C)CO)C[C@@H]2C)cc1,2
C[C@@H]1CCCCO[C@@H](CN(C)C(=O)CCC(F)(F)F)[C@@H](C)CN([C@H](C)CO)C(=O)c2cc(N(C)C)ccc2O1,25
Cc1noc(C)c1S(=O)(=O)Nc1cccc2c1O[C@H](CN(C)C(=O)Nc1ccc3c(c1)OCO3)[C@H](C)CN([C@H](C)CO)C2=O,17

# 7 structures already listed, ordered by length of the SMILES, high to low:
SMILES,NOMO-1 viab
C=C[C@H]1[C@H](O[C@@H]2O[C@H](CO)[C@@H](O)[C@H](O)[C@H]2O)OC=C2C(=O)N3Cc4c([nH]c5ccccc5c4=O)[C@@H]3C[C@H]21,20
Cc1ccc(S(=O)(=O)N(C)C[C@@H]2OCCCC[C@@H](C)Oc3ccc(NS(=O)(=O)c4ccc(F)cc4)cc3C(=O)N([C@H](C)CO)C[C@@H]2C)cc1,11
COc1ccc(NC(=O)Nc2ccc3c(c2)CC(=O)N([C@@H](C)CO)C[C@H](C)[C@H](CN(C)S(=O)(=O)c2ccc(Cl)cc2)O3)cc1,112*
Cc1noc(C)c1S(=O)(=O)Nc1cccc2c1O[C@H](CN(C)C(=O)Nc1ccc3c(c1)OCO3)[C@H](C)CN([C@H](C)CO)C2=O,17
Cc1noc(C)c1NC(=O)N(C)C[C@H]1Oc2ccc(NS(=O)(=O)c3ccc(F)cc3)cc2C(=O)N([C@@H](C)CO)C[C@H]1C,8
COc1ccc(CN(C)C[C@@H]2Oc3c(NS(=O)(=O)c4ccccc4)cccc3C(=O)N([C@@H](C)CO)C[C@@H]2C)cc1,2
CC(C)(C#N)NC(=O)C1Cc2ccccc2CN1S(=O)(=O)c1ccc(F)cc1 (stereo unspecified),5

# The list goes on:
SMILES,NOMO-1 viab
O=C(Nc1ccc2c(c1)OCCO2)c1ccc2nccnc2c1,5
CC(=O)c1cccc(NC(=O)c2ccc(CNS(=O)(=O)c3ccc(C(C)(C)C)cc3)cc2)c1,11
Cc1cc(S(=O)(=O)NCC(=O)O)ccc1Cl,20
Cc1cc(S(=O)(=O)N2CCC(NC(=O)Cc3ccccc3)CC2)c(Cl)cc1Cl,33
C[C@H](CO)N1C[C@H](C)[C@H](CN(C)CC2CCCCC2)Oc2ccc(NC(=O)CCC(F)(F)F)cc2C1=O,-1
COc1ccc(S(=O)(=O)N(C)C[C@H]2Oc3ccc(NC(=O)Nc4ccccc4)cc3CC(=O)N([C@H](C)CO)C[C@H]2C)cc1,7
C[C@@H]1CN([C@@H](C)CO)C(=O)c2cc(NC(=O)CCCN(C)C)ccc2O[C@H]1CN(C)C(=O)NC1CCCCC1,-10
COC(=O)C1=C[C@@H](O)[C@@H](O)[C@H](O[C@@H]2O[C@H](COC(=O)/C=C/c3ccccc3)[C@@H](O)[C@H](O)[C@H]2O)C1,-2
Cc1ccnc(SCC(=O)c2cccc([N+](=O)[O-])c2)n1,-5
CC(C)c1ccc2c(c1)C(O)CC1C(C)(CO)CCCC21C (stereo unspecified),15
C[C@@H]1CN([C@@H](C)CO)C(=O)c2cccc(NS(C)(=O)=O)c2O[C@@H]1CN(C)C(=O)NC1CCCCC1,11
C[C@H](CO)N1C[C@H](C)[C@H](CN(C)S(=O)(=O)c2ccc(Cl)cc2)Oc2c(NC(=O)Nc3cccc4ccccc34)cccc2C1=O,24
C[C@@H]1CN([C@@H](C)CO)C(=O)c2cccc(NC(=O)Nc3ccc4c(c3)OCO4)c2O[C@@H]1CN(C)S(=O)(=O)c1ccccc1,52
C[C@@H]1CN([C@H](C)CO)C(=O)Cc2cc(NS(=O)(=O)c3ccc(F)cc3)ccc2O[C@@H]1CN(C)C(=O)NC1CCCCC1,-2
C[C@H](CO)N1C[C@H](C)[C@H](CN(C)C(=O)Nc2cccc3ccccc23)Oc2ccc(NS(=O)(=O)c3ccc(F)cc3)cc2CC1=O,4
CSc1sc(C(=O)Sc2ccccc2)cc1S(=O)(=O)C(C)C,106*
O=C(COc1cccc(NC(=O)c2ccccc2[N+](=O)[O-])c1)c1ccc(F)cc1,21
COc1ccc(NC(=O)N(C)C[C@H]2Oc3ccc(NS(=O)(=O)c4ccccc4)cc3C(=O)N([C@@H](C)CO)C[C@H]2C)cc1,-14
C[C@@H]1CN([C@@H](C)CO)C(=O)Cc2cc(NC(=O)Cc3ccccc3)ccc2O[C@@H]1CN(C)Cc1ccccc1,44
C[C@@H]1CN([C@H](C)CO)C(=O)c2cccc(NC(=O)C3CCOCC3)c2O[C@H]1CN(C)Cc1ccc(Oc2ccccc2)cc1,46

# Part of the list above, as labelled records.
CSc1sc(C(=O)Sc2ccccc2)cc1S(=O)(=O)C(C)C
  NOMO-1 viab: 106*
C[C@H](CO)N1C[C@H](C)[C@H](CN(C)S(=O)(=O)c2ccc(Cl)cc2)Oc2c(NC(=O)Nc3cccc4ccccc34)cccc2C1=O
  NOMO-1 viab: 24

# (next part)
SMILES,NOMO-1 viab
CNC[C@H]1Oc2ccc(NS(=O)(=O)c3ccc(OC)cc3)cc2C(=O)N([C@H](C)CO)C[C@H]1C,2
C[C@@H]1CN([C@@H](C)CO)C(=O)c2cc(NC(=O)Cn3cnnn3)ccc2O[C@H]1CN(C)C(=O)Nc1cccc2ccccc12,-16
C[C@@H]1CN([C@@H](C)CO)C(=O)c2cccc(NC(=O)Nc3ccccc3)c2O[C@@H]1CN(C)S(C)(=O)=O,1
Cc1noc(C)c1NC(=O)N(C)C[C@H]1Oc2c(NS(=O)(=O)c3cccs3)cccc2C(=O)N([C@@H](C)CO)C[C@H]1C,10
Cc1noc(C)c1NC(=O)Nc1ccc2c(c1)CC(=O)N([C@@H](C)CO)C[C@H](C)[C@H](CN(C)C(=O)Nc1ccccc1)O2,9
Cc1ccc(NC(=O)CCCOc2ccccc2)c([N+](=O)[O-])c1,19
CC(=O)c1cccc(NC(=O)C(C)NS(=O)(=O)c2ccc(F)cc2)c1 (stereo unspecified),1
C[C@@H]1CN([C@@H](C)CO)C(=O)Cc2cc(NC(=O)CCC(F)(F)F)ccc2O[C@@H]1CN(C)C(=O)Nc1ccc2c(c1)OCO2,27
COc1ccc(S(=O)(=O)N(C)CC(=O)Nc2ccc(C(N)=O)cc2)cc1Cl,5
COc1ccc([N+](=O)[O-])cc1N(CC(=O)Nc1cccc(C)c1)S(C)(=O)=O,24
C[C@@H]1CN([C@H](C)CO)C(=O)Cc2cc(NS(=O)(=O)c3cccs3)ccc2O[C@H]1CN(C)Cc1ccncc1,21
C[C@@H]1CN([C@@H](C)CO)C(=O)Cc2cc(NS(=O)(=O)c3ccc(Cl)cc3)ccc2O[C@@H]1CN(C)Cc1ccccc1,?
Cc1ccc(Nc2nc(N)nc(CSCCO)n2)cc1,12
Cc1noc(C)c1S(=O)(=O)N(C)C[C@H]1OCCCC[C@@H](C)Oc2ccc(NC(=O)Nc3ccc(C(F)(F)F)cc3)cc2C(=O)N([C@H](C)CO)C[C@@H]1C,104*
C[C@H](CO)N1C[C@H](C)[C@H](CN(C)C(=O)Nc2cccc3ccccc23)Oc2ccc(NC(=O)Cn3cnnn3)cc2CC1=O,24
Cc1ccc(-n2c(SCC(=O)Nc3ccc(F)c(F)c3)nnc2-c2ccccn2)cc1,-5
Cc1nc(-c2ccccc2)sc1C(=O)C1C(=O)C(=O)N(CCN2CCOCC2)C1c1cccs1 (stereo unspecified),15
COc1c(Cl)cc(Cl)cc1CNCCNCC(C)O (stereo unspecified),19
COc1ccc(Cl)cc1NC(=O)C(C)n1nc(C)c([N+](=O)[O-])c1C (stereo unspecified),1
CNC(=O)CCc1cc2ccccc2[nH]1,6
C=CCSCC1Nc2cc(Cl)c(S(N)(=O)=O)cc2S(=O)(=O)N1 (stereo unspecified),26
CC(=O)Nc1ccc(Nc2c3c4c(cccc4[nH]c2=O)C(=O)c2ccccc2-3)cc1,115*
C[C@@H]1CN([C@H](C)CO)C(=O)c2cc(NS(C)(=O)=O)ccc2O[C@@H]1CN(C)S(=O)(=O)c1cccs1,-5
Cc1c(Cc2ccccc2)c(=O)oc2cc(OC(C)C)ccc12,62
Cc1noc(C)c1S(=O)(=O)Nc1ccc2c(c1)C(=O)N([C@@H](C)CO)C[C@@H](C)[C@H](CN(C)S(=O)(=O)c1cccs1)O2,1
C[C@@H]1CN([C@H](C)CO)C(=O)Cc2cc(NS(=O)(=O)c3cn(C)cn3)ccc2O[C@@H]1CN(C)Cc1ccncc1,-3
Nc1cccc(-c2ccc(CO)o2)c1,-3
COc1ccc(CCC(=O)O)c(O)c1,-6
O=C(NCc1ccccc1)NC1CCCCC1,-15
O=C(COc1ccccc1[N+](=O)[O-])Nc1cc2nn(-c3ccccc3)nc2cc1Cl,15
Cc1ccc(S(=O)(=O)N(C)C[C@@H]2Oc3ccc(NC(=O)NC4CCCCC4)cc3C(=O)N([C@H](C)CO)C[C@@H]2C)cc1,31
C[C@H]1CN([C@@H](C)CO)C(=O)c2cccc(NS(=O)(=O)c3ccc(F)cc3)c2O[C@@H]1CN(C)Cc1ccc(C(=O)O)cc1,17
CNC[C@H]1OCCCC[C@@H](C)Oc2ccc(NS(C)(=O)=O)cc2C(=O)N([C@H](C)CO)C[C@@H]1C,-7
CCOC(=O)Cn1c(-c2cccnc2)nc(-c2ccccc2)c1-c1ccccc1,115*
C[C@H]1CN([C@@H](C)CO)C(=O)c2cccc(N(C)C)c2O[C@H]1CN(C)Cc1ccncc1,-9
Cc1noc(C)c1S(=O)(=O)Nc1ccc2c(c1)C(=O)N([C@H](C)CO)C[C@@H](C)[C@@H](CN(C)Cc1ccc(C(=O)Nc3ccccc3N)cc1)O2,108*
CCOC(=O)C(C)Oc1ccc2c(=O)c(-c3csc(C)n3)coc2c1 (stereo unspecified),?
C[C@@H]1CCCCO[C@H](CN(C)CC2CCCCC2)[C@@H](C)CN([C@H](C)CO)C(=O)c2cc(NC(=O)Nc3cccc4ccccc34)ccc2O1,128*
COc1ccc(NC(=O)C2CCCCC2C(=O)O)cc1OC (stereo unspecified),-17
C/C=C/C=C/C(=O)c1cc(C)c(O)c(C)c1O,61
COc1cc(NC(=O)CCN2C(=O)c3ccccc3C2=O)cc(OC)c1,-13
C[C@H]1CN([C@@H](C)CO)C(=O)Cc2cc(NC(=O)CCC(F)(F)F)ccc2O[C@H]1CN(C)Cc1ccc(C(=O)Nc2ccccc2N)cc1,139*
C[C@@H]1CN([C@H](C)CO)C(=O)c2cccc(NC(=O)Nc3ccccc3)c2O[C@H]1CN(C)S(=O)(=O)c1ccccc1,-18
CC(C)NC(=O)Nc1n[nH]c(Nc2ccc(Cl)cc2)n1,-24
C[C@@H]1CN([C@@H](C)CO)C(=O)c2cc(NC(=O)Cn3cnnn3)ccc2O[C@H]1CN(C)S(=O)(=O)c1ccc(Cl)cc1,19
COc1ccc(NC(=O)Nc2ccc3c(c2)C(=O)N([C@@H](C)CO)C[C@@H](C)[C@H](CN(C)S(C)(=O)=O)O3)cc1,-3
O=C(CCSc1nnc(-c2ccccc2)o1)Nc1ccc(F)cc1,-12
COc1ccc(NC(=O)N(C)C[C@@H]2Oc3ccc(NC(=O)NC4CCCCC4)cc3C(=O)N([C@@H](C)CO)C[C@@H]2C)cc1,11
C[C@@H]1CN([C@H](C)CO)C(=O)c2cccc(NC(=O)NC3CCCCC3)c2O[C@@H]1CN(C)S(=O)(=O)c1cccs1,11
Cc1ccc(OCC(=O)O)c(C)c1,-10
O=C(O)c1cccc(CSc2nnc(Cc3ccccc3)o2)c1,-10
Cc1cc(Cl)ccc1NC(=O)c1ccc(OCC(=O)Nc2ccccc2)cc1,35
COc1ccc(NC(=O)Nc2ccc3c(c2)C(=O)N([C@H](C)CO)C[C@H](C)[C@@H](CN(C)S(=O)(=O)c2ccc(Cl)cc2)O3)cc1,6

# An excerpt, so the mix of outcomes need not match the whole.
